Bfl-1 A1 inh: caspase 3/7 activation in MEF A1-2A-BIM cells, primary screen, A1 inhibitor project, cell-based, luminescence, HTS. Caspase-Glo 3/7 luminescence, 3 h; percent of clofoctol response, vehicle zero. caspase activation, % (no concentration beside the values). hit rate 0.066% among 330,000. AID 2462, 2010;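 active = over half of replicate activation scores above 10%, or exactly half above 10 with the replicate mean above 10; inconclusive = replicate mean below 10 yet half the replicates above 10; inactive = over half of replicates below 10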;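 also: wells of about 30 µL received 50 nL stock; many hits fall short of the cut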
ALR inh: inhibitors of human ALR sulfhydryl oxidase, primary screen, biochemical, H2O2 detection, HRP-luminol luminescence, single point; FAD-linked sulfhydryl oxidase ALR (Homo sapiens), P55789; purified ALR, DTT oxidation; inhibition, % (concentration not given with the values); hit rate 3.8% among 290,000;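 active = mean and each replicate at 75% or more; inconclusive = only one of the two met; inactive = neither met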;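 also: stock transfer was 7.5 nL into about 7.5 µL; 0% = neutral wells and 100% = wells with inactivated enzyme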
Calb FLC: C. albicans growth inhibition with fluconazole, primary screen, CaCi-2 strain, Alamar Blue fluorescence. growth inhibition, % (test concentration not listed). C. albicans CaCi-2 (fluconazole-resistant clinical isolate) + fluconazole, 48 h. hit rate 0.57% among 300,000;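 active = most replicates above 75%; inconclusive = exactly half above 75%; inactive = most below 75%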;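 also: all wells also contain fluconazole at 8 µg/ml as a sub-toxic cotreatment; 0% = median of DMSO wells and 100% = median of geldanamycin control wells; wells of about 8 µL received 7.5 nL stock; the first replicate is given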
T cruzi repl: inhibitors of intracellular T. cruzi growth, primary screen, luminescence, NIH3T3 host cells; inhibition, % (test concentration not listed); AID 1885, 2009; hit rate 1.4% among 300,000; T. cruzi beta-gal in NIH3T3, 90 h;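 active = mean inhibition across valid replicates above about 55%, limit read from the data; inconclusive = mean below that limit but half or more replicates reach it; inactive = mean below it, under half of replicates reach it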;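 also: signal also drops with host cell toxicity which is not excluded here; 0% = plate median of DMSO wells and 100% = zero luminescence signal; higher percent means less beta-gal luminescence so fewer parasites; stock transfer was 50 nL into about 50 µL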
Beta cell apopt: inhibitors of cytokine-induced beta cell apoptosis, primary screen, luminescence | INS-1E cytokine-induced death, ATP luminescence, 48 h; percent of positive-control rescue, neutral wells zero | protection from apoptosis, % (no concentration beside the values) | hit rate 0.8% among 300,000 | AID 435005, 2010;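 active = all replicates at 75% or more, or half of them and the mean; inconclusive = half reach 75% but not the mean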;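 also: 0% = cytokine-treated negative control wells and 100% = positive control rescue; higher means more ATP so stronger rescue from cytokine killing; wells of about 40 µL received 100 nL stock; the first replicate is given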
LANA-H2B inh: blockers of LANA interaction with H2A/H2B – biochemical, FP readout, HTS, primary screen. Protein LANA1 (Human herpesvirus 8 type P (isolate GK18)), Q9QR71. cell-free LANA-H2A/H2B peptide, fluorescence polarization. inhibition, % (no concentration beside the values). hit rate 0.6% among 320,000; in the data active = inhibition mostly above about 10%, no sharp cut-off; inactive = mostly below about 6.7%;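 also: stock transfer was 7.5 nL into about 10 µL; 0% = median of vehicle wells and 100% = median of positive control wells; one replicate is shown; the record names a cut of 25% in any replicate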
Target sequence (Q9QR71 whole entry, looked up): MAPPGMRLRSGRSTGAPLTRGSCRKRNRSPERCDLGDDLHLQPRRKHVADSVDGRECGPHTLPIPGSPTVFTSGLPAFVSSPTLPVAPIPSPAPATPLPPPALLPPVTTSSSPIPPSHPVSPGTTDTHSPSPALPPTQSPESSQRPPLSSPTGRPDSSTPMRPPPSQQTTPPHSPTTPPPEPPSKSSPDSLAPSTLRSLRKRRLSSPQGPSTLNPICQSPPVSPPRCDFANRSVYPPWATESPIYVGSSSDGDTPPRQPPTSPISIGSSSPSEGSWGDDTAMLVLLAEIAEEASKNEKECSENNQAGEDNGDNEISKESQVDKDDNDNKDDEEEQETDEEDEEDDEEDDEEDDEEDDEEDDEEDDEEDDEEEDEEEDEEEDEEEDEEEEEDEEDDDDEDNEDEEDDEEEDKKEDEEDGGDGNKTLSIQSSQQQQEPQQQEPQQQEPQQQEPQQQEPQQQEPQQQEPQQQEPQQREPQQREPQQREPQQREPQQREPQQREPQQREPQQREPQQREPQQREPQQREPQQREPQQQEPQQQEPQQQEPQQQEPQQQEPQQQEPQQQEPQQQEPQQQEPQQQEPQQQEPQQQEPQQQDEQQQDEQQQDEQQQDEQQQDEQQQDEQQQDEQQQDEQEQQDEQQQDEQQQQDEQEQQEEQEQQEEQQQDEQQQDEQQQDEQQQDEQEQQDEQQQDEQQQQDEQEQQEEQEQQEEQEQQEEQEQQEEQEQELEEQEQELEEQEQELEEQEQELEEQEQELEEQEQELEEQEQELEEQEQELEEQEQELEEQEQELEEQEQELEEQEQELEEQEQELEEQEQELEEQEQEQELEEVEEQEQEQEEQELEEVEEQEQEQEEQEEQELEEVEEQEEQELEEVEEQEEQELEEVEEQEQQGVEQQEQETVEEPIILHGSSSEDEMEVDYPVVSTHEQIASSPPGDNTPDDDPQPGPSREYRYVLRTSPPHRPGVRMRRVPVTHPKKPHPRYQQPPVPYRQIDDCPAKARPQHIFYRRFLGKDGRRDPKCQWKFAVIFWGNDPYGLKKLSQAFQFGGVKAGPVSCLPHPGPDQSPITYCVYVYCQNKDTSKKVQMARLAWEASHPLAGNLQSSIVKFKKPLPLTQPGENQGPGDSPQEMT
B2AR ag: beta2AR agonists driving receptor internalization, primary screen, cell-based, FAP fluorogen, flow cytometry; Beta-2 adrenergic receptor (Homo sapiens), P07550; hit rate 0.43% among 340,000; AID 504454, 2011; response, % (test concentration not listed); Am2.2-beta2AR cells; reference of the scale not given here;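 active = response above a set limit, near 3 SD of response in nonfluorescent compounds, cut at about 42% in these data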;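 also: stock transfer was 100 nL into about 11 µL; a reference agonist was the positive control; negative values mostly stem from fluorescent compounds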
Ecoli rRNA inh: reduced GFP signal of wild-type E. coli, primary screen, bacterial rRNA inhibitor project, GFP/RFP fluorescence, OD600, single point | E. coli WT GFP vs humanized-ribosome RFP mutants, 24 h; active compounds read low; DMSO median 0, no signal -100 | GFP signal change (wild-type ribosome), % (test concentration not listed) | hit rate 1.6% among 350,000;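 active = significant combined selectivity score with lowered wild-type GFP, culture density cut under 30%, mutant RFP and density less affected; inactive = any of these conditions unmet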; also: one replicate is shown; some compounds called inactive have numbers as strong as hits
Ecoli rRNA inh OD600: further read-out of Ecoli rRNA inh, marked with its call; OD600 change, %; measured here: OD600 growth;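 optical density of the mix in the first replicate; 0 = DMSO median and -100 = no signal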
Ecoli rRNA inh RFP: also measured in Ecoli rRNA inh; calls as there; RFP signal change, %; measured here: RFP humanized mutant strains;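 first replicate; 0 = DMSO median and -100 = no signal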
* hit, by the source's call; ? = inconclusive; · = not tested or not shown. A portion of the library; count on the stated rates, not on these rows.

SMILES	Bfl-1 A1 inh	ALR inh	Calb FLC	T cruzi repl	Beta cell apopt	LANA-H2B inh	B2AR ag	Ecoli rRNA inh	Ecoli rRNA inh OD600	Ecoli rRNA inh RFP
Cc1ccn2cc(CCNC(=O)CC(C)(C)C)nc2c1	0.2	-12	·	8	-7	2.0	1	·	·	·
CC(C)(C)NC(=O)C(c1ccncc1)N(CC1CCCO1)C(=O)Cn1nnc(-c2ccc(F)cc2)n1 (stereo not drawn)	0.6	-20	-12	-9	-4	-4.6	-2	10	10	0.5
CCCCOc1ccc(C(=O)NCc2ccncc2)cc1	0.6	-1	?	-3	-2	5.8	-11	·	·	·
CCCc1nc2oc3c(OC)ncnc3c2c2c1COC(C)(C)C2	0.3	-1	23	·	7	-1.2	-13	10	23	4.7
Cc1ccc(OCCn2ccnc2)c(C)c1	0.6	-9	0	-12	0	-7.6	-4	3	-7	-4.0
CCN(Cc1ccccc1OC)CC1CCCN(CCc2cccc(OC)c2)C1 (stereo not drawn)	0.2	-5	0	26	1	-6.2	-4	7	11	5.8
CC(=O)OC(C(=O)NCS(=O)(=O)c1ccc(C)cc1)c1cccnc1 (stereo not drawn)	-0.1	12	24	-3	-2	-3.2	4	·	·	·
COc1ccc(N2CC(C(=O)N[C@@H](CC(C)C)C(=O)NC3CCCC3)CC2=O)cc1 (stereo partly drawn)	1.4	-2	1	-8	-3	-0.2	9	-6	6	-4.1
CC[C@@H](C(=O)n1nc(C)cc1C)[C@H](NS(=O)(=O)c1ccc(C)cc1)c1ccccc1	0.8	-9	-14	39	3	3.4	-1	·	·	·
Cc1ccccc1C(=O)c1c[nH]c(C(=O)NCCCn2ccnc2)c1	0.7	-9	-2	-21	5	0.9	-6	·	·	·
CCCCNC(=O)NNC(=O)COc1cccc(C)c1C	0.6	-3	-5	-12	-10	-4.7	3	8	8	4.7
CCN(CC)c1ccc(N2C(=O)/C(=C\c3cccnc3)SC2=S)cc1	-0.3	-2	-12	15	0	-0.5	0	·	·	·
COCCCn1c(SCc2nnc(-c3ccccc3)o2)nc2sc3c(c2c1=O)CCC3	1.3	-41	3	21	-2	0.2	-19	·	·	·
O=C(O)C1CC(=O)N(c2ccc(Br)cc2)C1 (stereo not drawn)	2.0	1	8	-17	1	0.3	-4	·	·	·
COCCn1nnnc1C(c1cccs1)N1CCN(c2ccccc2)CC1 (stereo not drawn)	0.6	50	-15	2	-9	-1.7	13	7	-3	-11

The last four entries of the part before lead into the next.
SMILES	Bfl-1 A1 inh	ALR inh	Calb FLC	T cruzi repl	Beta cell apopt	LANA-H2B inh	B2AR ag	Ecoli rRNA inh	Ecoli rRNA inh OD600	Ecoli rRNA inh RFP
CCN(CC)c1ccc(N2C(=O)/C(=C\c3cccnc3)SC2=S)cc1	-0.3	-2	-12	15	0	-0.5	0	·	·	·
COCCCn1c(SCc2nnc(-c3ccccc3)o2)nc2sc3c(c2c1=O)CCC3	1.3	-41	3	21	-2	0.2	-19	·	·	·
O=C(O)C1CC(=O)N(c2ccc(Br)cc2)C1 (stereo not drawn)	2.0	1	8	-17	1	0.3	-4	·	·	·
COCCn1nnnc1C(c1cccs1)N1CCN(c2ccccc2)CC1 (stereo not drawn)	0.6	50	-15	2	-9	-1.7	13	7	-3	-11
Cc1ccc(-n2nnnc2SCn2nnc3ccccc3c2=O)cc1	-2.6	·	·	·	-3	2.3	-3	·	·	·
Cc1cc2cc(CNC(=O)c3cccc([N+](=O)[O-])c3)ccc2[nH]1	·	2	-4	24	-8	-12	12	-3	0	1.0
CCn1c(CN2CCOCC2)nnc1SCC(=O)Nc1ccc(C(C)=O)cc1	-0.9	-2	-1	0	-2	-0.7	-3	9	18	-1.3
COc1ccc(C2C(=O)N(C3CCCCC3)CC(=O)N2CCc2ccccc2)cc1OC (stereo not drawn)	0.0	-6	15	18	2	1.4	-10	·	·	·
CC1(C)Cc2nc3sc(C(N)=O)c(N)c3cc2CO1	-0.5	4	-10	-5	4	4.9	0	8	12	6.5
COc1ccc(-n2c(C)csc2=S)cc1	1.7	1	-7	-5	-3	1.5	3	·	·	·
Cc1cnc(C(=O)NC2CC(C)(C)Cc3c2cnn3-c2cccc(F)c2)cn1 (stereo not drawn)	·	67	1	1	·	·	-2	2	1	-4.1
C/C(=N\NC(=O)CNC(=O)c1cccs1)c1ccc(Cl)c(Cl)c1	-0.6	-6	13	16	-1	-2.9	0	-1	-16	-1.0
Cc1ccccc1N1CC2=C(C1=O)C(c1ccccc1)NC(=O)N2C (stereo not drawn)	-0.5	-3	-1	6	8	-1.8	-13	0	-3	-0.2
COC(=O)c1c(N2C(=O)Nc3ccccc3N2O)sc2c1CCCC2	1.0	9	18	7	2	-6.6	-8	-40	-36	-7.7
Cc1nn(CC(=O)NCc2ccc(OC(C)C)cc2)c(=O)c2cc(-c3ccccc3)nn12	1.1	-3	-8	0	·	6.1	5	·	·	·
CNc1ccc(Cl)nn1	0.7	-3	-14	-4	-4	-3.5	1	5	10	1.2
CN1CCN(CC(=O)Nc2cc(N(C)C)nc3ccccc23)CC1	0.6	-16	13	?	·	2.5	1	10	-1	0.4
Cc1cc2c(cc1S(=O)(=O)CCC(=O)N(C)C1CCCCC1)OCC(=O)N2	·	-13	3	-6	1	5.7	7	0	3	-5.2
O=C(O)c1cccnc1SCc1cccc(Br)c1	0.5	24	19	-12	-3	-5.7	7	-15	-6	-0.8
O=C(Nc1ccc(CSc2ccccc2)cc1)c1ccco1	-7.1	-3	·	3	-1	5.2	3	3	-1	1.7
CCOc1ccccc1NC(=O)CSc1ccccc1	1.4	-1	-2	-10	-1	5.6	-5	·	·	·
COC(=O)c1ccccc1S(=O)(=O)N1CCC(C(=O)NCc2ccco2)CC1	-0.6	0	·	·	-5	-2.6	-8	·	·	·
Cc1ccc2nc(NC(=O)CSc3nc(=O)n(CCCN(C)C)c4c3CCC4)sc2c1	0.3	97*	11	16	·	-5.8	41	4	7	1.4
CS(=O)(=O)N1c2ccccc2[C@]2([C@@]34C[C@H]5C(=O)N[C@@H](Cc6ccccc6)C(=O)N5[C@@H]3N(S(C)(=O)=O)c3ccccc34)C[C@H]3C(=O)N[C@@H](Cc4ccccc4)C(=O)N3[C@H]12	-0.5	-1	14	7	-8	1.6	·	6	26	6.3
COc1cccc(-n2ccnc2SCC(=O)Nc2cc(OC)ccc2OC)c1	0.8	19	1	-13	1	-0.3	8	·	·	·
O=C(Nc1cccc(C(F)(F)F)c1)c1ccc(Cn2cc(Br)cn2)o1	-0.4	1	9	-31	4	0.5	2	·	·	·
O=C(/C(=C/O)N=Nc1ccccc1)c1ccco1	-0.2	-1	-14	-1	-3	-0.9	-1	5	8	6.8
O=C(Cc1ccc(F)cc1)NC(Cc1c[nH]c2ccccc12)C(=O)O (stereo not drawn)	0.7	2	2	-13	3	-2.0	-2	8	8	1.0
O=C(NCCN1CCOCC1)/C(=C/c1ccc(F)cc1)NC(=O)c1ccccc1	0.1	0	-22	-2	-1	-3.3	8	5	8	-0.2
O=C(NC(=S)Nc1ncccn1)c1ccc(F)cc1	-0.8	-6	0	-12	-7	4.0	-19	3	9	1.6
Cc1noc(C)c1COC(=O)CCCOc1ccc(Cl)cc1Cl	0.5	-3	3	-6	-2	-0.7	4	·	·	·
OCC1(CO)COC(CCc2ccccc2)=N1	-0.8	-13	-6	-15	-4	-6.1	2	9	10	-1.5
CCn1c(O)c(N=NC(=O)c2ccc(CSc3nncn3C)cc2)c2ccccc21	-0.1	-5	-10	-11	2	-3.8	53*	·	·	·
O=C(CN1CCN(S(=O)(=O)c2ccc3ccccc3c2)CC1)N1CCc2ccccc2C1	0.0	-9	2	6	-13	0.0	-5	·	·	·

In the list so far, these contain an NH in an aromatic ring:
SMILES	Bfl-1 A1 inh	ALR inh	Calb FLC	T cruzi repl	Beta cell apopt	LANA-H2B inh	B2AR ag	Ecoli rRNA inh	Ecoli rRNA inh OD600	Ecoli rRNA inh RFP
Cc1ccccc1C(=O)c1c[nH]c(C(=O)NCCCn2ccnc2)c1	0.7	-9	-2	-21	5	0.9	-6	·	·	·
Cc1cc2cc(CNC(=O)c3cccc([N+](=O)[O-])c3)ccc2[nH]1	·	2	-4	24	-8	-12	12	-3	0	1.0
O=C(Cc1ccc(F)cc1)NC(Cc1c[nH]c2ccccc12)C(=O)O (stereo not drawn)	0.7	2	2	-13	3	-2.0	-2	8	8	1.0

Remaining list, next part:
SMILES	Bfl-1 A1 inh	ALR inh	Calb FLC	T cruzi repl	Beta cell apopt	LANA-H2B inh	B2AR ag	Ecoli rRNA inh	Ecoli rRNA inh OD600	Ecoli rRNA inh RFP
CCOc1nc(CC)nc(NC(=O)NS(=O)(=O)c2ccccc2Cl)n1	-0.1	-30	12	-3	-2	1.1	-1	·	·	·
O=C(Nc1ccc(-c2nc3cccnc3s2)cc1)c1ccc(Br)o1	·	·	-3	2	·	·	-9	1	0	3.3
CCN1CCN(C(=O)c2cc(COc3ccc4ncccc4c3)on2)CC1	-0.3	-6	1	6	45	-6.9	-5	0	3	-0.6
COc1ccc(-c2csc(N3C(=O)C4C5c6ccccc6C(c6ccccc65)[C@@H]4C3=O)n2)cc1 (stereo partly drawn)	-0.5	2	4	2	-1	-1.5	2	·	·	·
c1ccc(-c2nc(-c3nccc4ccccc34)oc2-c2ccccc2)cc1	-4.6	0	1	38	6	-1.6	-8	-7	5	21
Cc1ccc2cc(CCNC(=O)c3ccc(Br)o3)c(=O)[nH]c2c1	-0.5	23	-5	6	-3	2.4	-12	·	·	·
CCOCCn1c(CN2CCc3ccccc3C2)nc2c1c(=O)n(C)c(=O)n2C	0.1	-16	-6	-1	-1	3.9	-1	-1	0	-1.6
COC(=O)c1cccc(-n2c(C)cc(C=O)c2C)c1	0.8	-1	5	-9	-2	-0.4	-8	11	3	0.7
COc1cc(/C=N/NC(=O)c2ccc(O)cc2)ccc1OCC(=O)Nc1cccc([N+](=O)[O-])c1	-0.5	-4	-4	-8	·	-1.7	7	8	6	0.6
O=C(COC(=O)CNC(=O)c1ccccc1F)Nc1ccc2c(c1)OCCO2	0.0	-3	-2	-22	-8	2.1	-6	6	15	-2.0
CC(C)(C)OC(=O)C[C@@H]1C/C=C\C[C@@H](CC(=O)N[C@@H](CO)Cc2ccccc2)C(=O)N2CCC[C@@H]2COC1=O	-0.3	-10	·	·	-2	-0.3	-6	-8	-8	-7.5
